Screens from PubChem BioAssay.
Bead autofluor: compound fluorescence in toxin protease inhibitor counterscreen. compound autofluorescence counterscreen, microsphere flow cytometry; hits give high values. fluorescence intensity (test concentration not listed). 360,000 tested, 3.1% active. AID 624483;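 active means at least 3 SD above the mean of all compounds, about 16000 in these data; inconclusive means too few beads counted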;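 further: 100 nL of 1 mM stock went into each well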
RN4220 kill: kills Staphylococcus aureus RN4220. S. aureus RN4220 growth, OD600, 16 h. inhibition, % (test concentration not listed). 330,000 tested, 0.33% active;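 active means z-score of -3 or lower and OD600 up to 0.18 on both plates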;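 further: plate controls were untreated cells for no effect and reference antibiotic for full effect; stock transfer was 100 nL into about 80 µL; one replicate is shown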
Sa ugtP lethal: kills S. aureus RN4220 lacking UgtP | 330,000 tested, 0.54% active | AID 1259309 | S. aureus RN4220 ugtP deletion, OD600 growth, 16 h; some inactives read as strong as hits | growth inhibition, % (concentration not given with the values);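 active means z-score under -3 and OD600 up to 0.15 on both plates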;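 further: plate controls were untreated wells for no effect and antibiotic for full effect; wells of about 80 µL received 100 nL stock; the first replicate is given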
BJeLR lethal: kills HRASV12-expressing BJeLR cells; BJeLR (HRASV12) viability, CellTiter-Glo ATP luminescence, 48 h; reference of the scale not given here; inhibition, % (test concentration not listed); 300,000 tested, 0.17% active; AID 1554;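 active means replicate mean above 50%; inconclusive means above 50% but judged a plate artefact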;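 further: 50 nL library stock added to about 25 µL; numbers are from one replicate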
PrP UTR inh: inhibition of PrP 5' UTR reporter expression | cell-based PrP 5' UTR mRNA reporter, plate reader | inhibition, % (concentration not given with the values) | 340,000 tested, 0.35% active;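 active means every replicate at 50% or more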;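 further: 0 = median of the neutral control wells; tested in H4 reporter cells; numbers are from one replicate; inactives centre near -14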
Mtb hypoxia rep: inhibitors of hypoxia-regulated fluorescent reporter in Mycobacterium tuberculosis | M. tuberculosis hypoxia-regulated fluorescent reporter, fluorescence | fluorescence inhibition, % (test concentration not listed) | 300,000 tested, 0.1% active | AID 1159583;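 active means 35 to 45% if threefold the growth effect, above 45% if 1.5-fold the growth effect; inactive means the rest, general growth blockers included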;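 further: wells of about 50 µL received 100 nL stock; 0% = vehicle wells and 100% = reference inhibitor wells; whole bacteria with a GFP reporter of the hypoxia response; strong numbers were not always called active; many hits fall short of the cut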
Mtb hypoxia rep growth: further read-out of Mtb hypoxia rep, marked with its call; growth inhibition, %; measured here: M. tuberculosis growth (absorbance);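 0% = vehicle and 100% = reference antibiotic; read after six days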
Numbers without * were called inactive; ? = inconclusive; · = no result given.

The opening 5 compounds, to show the layout:
SMILES	Bead autofluor	RN4220 kill	Sa ugtP lethal	BJeLR lethal	PrP UTR inh	Mtb hypoxia rep	Mtb hypoxia rep growth
O=C(NCC1CCCO1)c1ccc2c(c1)N(Cc1ccccc1)C(=O)CS2=O (configuration not stated)	5188	3.8	1	6	-16	3	6
CC(C)C(=O)c1cc2c(cc1NC(=O)c1cccs1)OCCO2	23207*	-1.2	0	-3	7	15	16
CC(C)c1ccc(NC(=O)CCc2ccccc2)cc1	4058	3.4	8	11	-74	4	-3
Cc1ccc(Oc2ccccc2NC(=O)CN2C(=O)NC3(CCCC3)C2=O)cc1	4173	2.9	8	8	-2	6	-10
FC(F)(F)c1cccc(-n2cccc2C=Nn2cnnc2)c1	·	5.4	0	·	·	6	12

The list itself, repeating the preview:
SMILES	Bead autofluor	RN4220 kill	Sa ugtP lethal	BJeLR lethal	PrP UTR inh	Mtb hypoxia rep	Mtb hypoxia rep growth
O=C(NCC1CCCO1)c1ccc2c(c1)N(Cc1ccccc1)C(=O)CS2=O (configuration not stated)	5188	3.8	1	6	-16	3	6
CC(C)C(=O)c1cc2c(cc1NC(=O)c1cccs1)OCCO2	23207*	-1.2	0	-3	7	15	16
CC(C)c1ccc(NC(=O)CCc2ccccc2)cc1	4058	3.4	8	11	-74	4	-3
Cc1ccc(Oc2ccccc2NC(=O)CN2C(=O)NC3(CCCC3)C2=O)cc1	4173	2.9	8	8	-2	6	-10
FC(F)(F)c1cccc(-n2cccc2C=Nn2cnnc2)c1	·	5.4	0	·	·	6	12
O=C(COC(=O)c1ccc(NS(=O)(=O)c2ccc3c(c2)OCCO3)cc1)NC1CCS(=O)(=O)C1 (configuration not stated)	2521	5.7	6	-1	-16	4	-1
Cc1ccc(C)c(NC(=O)c2ccc(OCc3c(C)noc3C)cc2)c1	4035	-6.4	-1	·	-11	0	1
CCCCN(C)CCNS(=O)(=O)c1ccc2c(c1)n(C)c(=O)c(=O)n2C	5944	4.5	3	-6	5	8	3
COCCNC(=S)NN=Cc1c2ccccc2cc2ccccc12	·	5.1	14	·	·	13	9
Cc1ccnn1-c1ccc(C(=O)NCC(c2ccco2)N2CCCC2)cc1 (configuration not stated)	5215	-0.1	1	·	-13	4	3
CC1CSc2nc3sc4c(c3c(=O)n21)CCCC4 (configuration not stated)	2922	4.3	3	0	-20	·	·
CC(=O)c1ccc(CCCC(=O)O)cc1	?	1.0	15	-12	-11	6	-6
Nc1nc2c(Cl)ccc(Cl)c2s1	4051	2.3	0	-16	-14	5	3
CC(=O)Nc1ccc(S(=O)(=O)NC2(C(F)(F)F)NC(=O)N(c3ccc(C)cc3)C2=O)cc1 (configuration not stated)	4616	8.7	19	-4	-16	-1	2
CCCCCCCC1c2c(c(C)c(C)oc2=O)Oc2c(C)c(C)oc(=O)c21	3555	-1.5	1	·	3	5	6
Cn1c(CCN2CCN(c3ccccn3)CC2)nc2cc(NC(=O)COc3ccccc3)ccc21	5285	3.2	5	8	0	-6	6
COc1ccccc1-n1c(SCC(N)=O)nc2c(c1=O)SCC2	5650	1.6	9	8	-23	6	13
Cc1cc(C(F)(F)F)nn1CC(=O)NCc1cccs1	2494	2.4	-8	2	-11	10	-2
CCc1ccc(NC(=S)NC2CCN(Cc3ccccc3)CC2)cc1	2512	0.7	-1	12	3	4	2
Cc1nnc(NC(=O)CSc2nnc(CNC(=O)c3ccc(F)cc3)o2)s1	·	1.2	5	-4	-14	5	5
Cc1ccc(C(=O)N/C(=C/c2cccs2)C(=O)NCCc2c[nH]c3ccccc23)cc1	2602	0.4	0	10	-15	0	-8
CC(=O)N1c2ccc(S(=O)(=O)N3CCCC(C(=O)N4CCCCC4)C3)cc2CC1C (configuration not stated)	5903	4.8	5	5	-18	5	4
O=C(NCCCN1CCN(c2ccc(F)cc2)CC1)C1CCCN(c2ncnc3c2nc2n3CCCCC2)C1 (configuration not stated)	6078	3.4	6	7	-1	7	-2
Cc1ccc(OCC(=O)Nc2ccc(C(=O)O)cc2NC(=O)COc2ccc(C)c(C)c2)cc1C	4991	2.6	1	7	-12	-4	2
CN(C)CCN(C(=O)c1ccc(N2C(=O)CCC2=O)cc1)c1nc2cc3c(cc2s1)OCO3	4900	2.5	6	1	-32	-2	6
Cc1ccc(N2CN(Cc3cccnc3)CNC2=S)cc1	7520	1.2	3	-2	-6	11	7
O=C(COc1ccc(Br)cc1)Nc1nnc(C2CC2)s1	2845	-2.2	4	·	-8	2	-4
CC1CCN(C(=S)NC(=O)c2cccs2)CC1	4424	1.8	-1	13	-9	-2	10
COc1ccc(NS(=O)(=O)c2ccc(C(=O)N(C)Cc3ccc(C)o3)cc2)cc1	3436	3.4	-1	·	-16	2	-4
CC1(C)CC(=O)C=C(Nc2ccc(F)cc2F)C1	2574	-0.9	1	10	0	·	·
CN(C(=O)c1cc2n(n1)C(C(F)(F)F)CC(c1ccco1)N2)c1ccccc1 (configuration not stated)	2367	6.5	-6	13	-18	14	14
COCCNC(=O)c1cc(-c2cccc(OC)c2)on1	16071	0.1	-9	8	-106	-1	-3
CC(C)CN1C(=O)c2ccc(NC(=O)c3cccs3)cc2C1=O	24092*	0.7	21	-10	-55	7	5
C=CCn1c(N)c(C(=O)NCCC2=CCCCC2)sc1=S	16404*	3.2	1	10	-49	1	-1
O=S1(=O)c2cccc3cccc(c23)N1CCBr	5986	5.3	4	-13	-2	0	-5
O=C(Nc1nnc(COc2ccc(F)cc2)s1)Nc1ccccc1F	5292	5.1	3	-1	·	5	-5
CC1=CC(C)(C)N(C(=O)c2ccc(F)cc2)c2cc3c(cc21)OCO3	9444	-7.3	29	-1	-11	6	7
CN(C)c1ccc(/C=C2\NC(=S)N(Cc3ccccc3)C2=O)cc1	15686	-14	-17	-9	-26	5	9
O=C(NC1CCCCC1)C(c1ccco1)N(C(=O)c1csnn1)c1ccccc1 (configuration not stated)	3773	2.9	8	-2	-18	9	2
CC(=NNC(=O)c1cccc(S(=O)(=O)Nc2ccccc2Cl)c1)c1ccco1	·	9.4	8	·	·	0	11
CCOC(=O)C(O)(c1ccc(N(CC)S(=O)(=O)c2ccccc2)cc1)C(F)(F)F (configuration not stated)	2358	6.9	-3	6	-15	9	12
COCCCNC(=O)c1cc2cc(Br)ccc2oc1=O	3673	2.0	9	·	-13	2	1
Cc1ccc(C(=O)NCN2CCN(c3ccccc3)CC2)cc1	?	1.5	3	·	-10	10	2
Cn1cc(C(=O)N2CCN(c3ccccn3)CC2)c(=O)c2cc(S(=O)(=O)N3CCOCC3)ccc21	3698	3.9	8	·	15	-6	0
CCn1c(SCC(=O)Nc2nccs2)nnc1-c1cc2cccc(OC)c2o1	8503	5.8	-2	5	-9	-85	-9
COc1cc([N+](=O)[O-])cc(/C=C2/SC(=S)N(Cc3ccccc3)C2=O)c1O	3248	27	18	0	0	12	-2
O=C(CN(C(=O)c1nsc(Cl)c1Cl)c1ccc(F)cc1)NC1CCCC1	5632	1.2	2	2	-21	12	3
Cc1ccc(C)c(NC(=O)CN(C)C(=O)c2oc3c(Cl)cccc3c2C)c1	7352	-5.3	0	-13	4	6	9
CC(C)(C)C(=O)Nc1cc2nn(-c3ccccc3)nc2cc1Cl	3779	-4.2	4	·	86*	2	8
COc1ccc(S(=O)(=O)N2CCOCC2)cc1NC(=O)c1sccc1C	4056	0.0	1	·	-11	-10	0

Some of the entries so far, with two lines to a compound:
Below each SMILES – Bead autofluor, RN4220 kill, Sa ugtP lethal, BJeLR lethal, PrP UTR inh, Mtb hypoxia rep, Mtb hypoxia rep growth
COc1ccc(NS(=O)(=O)c2ccc(C(=O)N(C)Cc3ccc(C)o3)cc2)cc1
→ 3436, 3.4, -1, ·, -16, 2, -4
CC1(C)CC(=O)C=C(Nc2ccc(F)cc2F)C1
→ 2574, -0.9, 1, 10, 0, ·, ·
CN(C(=O)c1cc2n(n1)C(C(F)(F)F)CC(c1ccco1)N2)c1ccccc1 (configuration not stated)
→ 2367, 6.5, -6, 13, -18, 14, 14
COCCNC(=O)c1cc(-c2cccc(OC)c2)on1
→ 16071, 0.1, -9, 8, -106, -1, -3
CC(C)CN1C(=O)c2ccc(NC(=O)c3cccs3)cc2C1=O
→ 24092*, 0.7, 21, -10, -55, 7, 5

Going on with the list.
SMILES	Bead autofluor	RN4220 kill	Sa ugtP lethal	BJeLR lethal	PrP UTR inh	Mtb hypoxia rep	Mtb hypoxia rep growth
CCN(CC)C(=O)c1n[nH]c(=O)c2ccccc12	10257	3.4	5	-3	-40	3	5
Cc1ccc(C(=O)N2CCNC(=O)C2CC(=O)Nc2ccccc2)cc1 (configuration not stated)	7057	3.4	3	-7	6	12	-1
Cc1cc(C(=O)COC(=O)CC2Sc3ccccc3NC2=O)c(C)n1-c1cccc(C(F)(F)F)c1 (configuration not stated)	2491	-0.8	-2	-6	-32	16	14
Cc1ccc2cc3cc(C(=O)NC4CC4)oc3nc2c1	5463	4.1	1	-7	-56	8	7
Cc1cc(-c2nsc(=O)o2)c(S(C)(=O)=O)s1	?	7.1	11	4	-25	15	3
O=S1(=O)CCN(Cc2ccccc2Cl)CC1	2608	-5.8	-1	11	-26	·	·
Cc1ccc(C)c(OCc2nnc(NC(=O)c3ccc4c(c3)OCO4)s2)c1	4617	4.3	5	8	-7	5	-4
CCOC(=O)N1CCN(C(=O)CNS(=O)(=O)c2cccs2)CC1	4209	5.5	4	-5	-10	2	4
CCOc1ccccc1CN1CCNC(=O)C1CC(=O)NCc1nccn1CC (configuration not stated)	6122	1.0	0	-6	-15	2	10
O=C(CCN1CCN(c2ccccc2)CC1)Nc1ccc2c(c1)OCO2	8105	2.6	8	-7	-6	6	-4

Single records (already shown). Order of values: Bead autofluor, RN4220 kill, Sa ugtP lethal, BJeLR lethal, PrP UTR inh, Mtb hypoxia rep, Mtb hypoxia rep growth
O=C(CCN1CCN(c2ccccc2)CC1)Nc1ccc2c(c1)OCO2 as listed: 8105, 2.6, 8, -7, -6, 6, -4
CCOc1ccccc1CN1CCNC(=O)C1CC(=O)NCc1nccn1CC (configuration not stated) as listed: 6122, 1.0, 0, -6, -15, 2, 10

The listing continues:
SMILES	Bead autofluor	RN4220 kill	Sa ugtP lethal	BJeLR lethal	PrP UTR inh	Mtb hypoxia rep	Mtb hypoxia rep growth
CCCn1c(NCc2cccs2)nc2ccccc21	2904	1.1	1	9	-11	19	13
COc1ccc2ccccc2c1CN1CCN(C(=O)c2ccco2)CC1	3690	1.9	15	-3	-14	1	9
COc1cccc(CNC(=O)Cn2cc3c(n2)CCCC3)c1	6073	1.7	12	-8	-32	·	·
CC(=O)c1ccccc1OCCOCCOCCOc1ccccc1C(C)=O	4307	15	7	55*	7	4	-1
CC(C)(C)NC(=S)NNC(=O)c1ccc2ncccc2c1	3763	5.3	5	-4	-39	-2	4
CC(=O)NC(CC(=O)N(Cc1ccccc1)c1cccc(C)c1)c1ccccc1 (configuration not stated)	6029	10.0	4	4	-18	1	3
CC(Sc1nc(-c2ccccc2)cc(C(F)(F)F)n1)C(=O)O (configuration not stated)	4315	8.5	3	0	-8	12	6
C/C(=N\NC(=O)CN1CCN(S(=O)(=O)c2ccc(C)cc2)CC1)c1ccc(O)cc1	3954	·	·	3	-10	·	·
COc1ccc(C=NNC(=O)c2cc(=O)[nH]c3ccccc23)cc1OC	·	5.2	8	·	·	13	8
CC1=Nc2ccccc2N=C(NC(=O)c2ccccc2)C1c1ccccc1 (configuration not stated)	4324	·	·	-5	-30	·	·
Nc1c(-c2ccccc2)cnc2cc(-c3ccccc3)nn12	4840	-1.6	-8	9	-75	2	-2
CC1(C)Cc2c(ccc3ccccc23)C(=O)N1	3807	1.0	-6	-13	-6	0	1
CCOC(=O)C1CCCN(S(=O)(=O)c2c(C(=O)N3CCCCC3)c(C)n(C)c2C)C1 (configuration not stated)	5683	1.1	4	18	-13	13	10
C=CCn1cccc(C(=O)Nc2cc(OC)cc(OC)c2)c1=O	4316	-3.8	-3	-10	-27	-4	5
COC(=O)[C@]1(C)N[C@H](CN(C)S(=O)(=O)c2ccc(C)cc2)[C@@H]2C(=O)N(C)C(=O)[C@@H]21	3393	4.0	0	·	-10	1	5
CC(=O)Nc1ccc2nc3c(=O)n(C)c(=O)n(C)c3nc2c1	4180	6.6	-1	3	-1	6	10
O=C(Nc1ccc(-c2nnc(-c3ccccc3)o2)cc1)c1ccc(Br)o1	2458	4.2	-12	1	-34	6	10
